From PubChem BioAssay
RecA splice inh = inhibitors of M. tuberculosis RecA intein splicing | P9WHJ3 | cell-free RecA intein splicing, fluorescence | inhibition, %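 (about 9 µM by stock and volumes)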 | hit rate 0.75% among 290,000; in the data active means inhibition above about 30%;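 further: 0% = vehicle wells and 100% = reference inhibitor control wells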
Target sequence (P9WHJ3 whole entry, looked up, canonical isoform): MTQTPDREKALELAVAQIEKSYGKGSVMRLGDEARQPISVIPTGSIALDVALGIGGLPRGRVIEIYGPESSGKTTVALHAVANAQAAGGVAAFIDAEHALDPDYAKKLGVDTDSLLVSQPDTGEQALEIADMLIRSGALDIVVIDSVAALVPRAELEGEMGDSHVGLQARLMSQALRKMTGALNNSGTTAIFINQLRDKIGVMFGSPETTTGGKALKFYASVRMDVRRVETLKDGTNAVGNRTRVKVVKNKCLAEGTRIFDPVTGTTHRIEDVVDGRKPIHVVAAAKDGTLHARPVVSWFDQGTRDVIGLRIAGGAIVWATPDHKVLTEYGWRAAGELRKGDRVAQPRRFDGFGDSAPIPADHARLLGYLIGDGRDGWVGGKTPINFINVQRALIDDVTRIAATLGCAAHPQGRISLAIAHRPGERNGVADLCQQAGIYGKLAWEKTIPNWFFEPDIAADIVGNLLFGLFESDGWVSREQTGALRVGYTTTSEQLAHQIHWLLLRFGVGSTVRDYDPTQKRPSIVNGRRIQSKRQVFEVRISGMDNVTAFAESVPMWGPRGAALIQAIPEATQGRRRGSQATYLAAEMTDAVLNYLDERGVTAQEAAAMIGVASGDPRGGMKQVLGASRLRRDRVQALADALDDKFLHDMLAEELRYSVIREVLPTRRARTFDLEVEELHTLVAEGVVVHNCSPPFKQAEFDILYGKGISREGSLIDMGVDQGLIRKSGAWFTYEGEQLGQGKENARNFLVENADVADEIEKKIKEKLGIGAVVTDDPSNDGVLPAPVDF
Mtb bLac sens = beta-lactam sensitization of Mtb H37Rv | M. tuberculosis H37Rv growth with meropenem, percent inhibition; hits of this screen are not shown here | inhibition, % at 25 µM | hit rate 0.27% among 330,000 | AID 434955;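 active means about 74% or more and at least 40 points above the plate without the antibiotic, then above 30% in a dose series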;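 further: growth measured after seven days incubation then overnight dye step; 0% = bacteria only wells and 100% = bacteria with antibiotic; twin plates without the antibiotic show which effects depend on it; some results filed as inactive read as strong as hits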
YopH PTP inh = YopH (Yersinia) phosphatase inhibition. hit rate 0.16% among 140,000. fluorescence Ex485/Em525. inhibition, %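 (about 10 µM by stock and volumes)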;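 active means inhibition of 50% or more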;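 further: controls were vehicle for no effect and minimum signal wells for full effect; inactives centre near -20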
Mtb H37Rv = M. tuberculosis H37Rv growth inhibitors, H37Rv strain (AID 1626) | M. tuberculosis H37Rv growth inhibition; higher % means a stronger effect | inhibition, % at 10 µM; hits with a dose series show IC50 in µM | hit rate 0.95% among 220,000;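 active means confirmed in a dose series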;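 further: bacteria incubated seven days before Alamar blue readout; 0% = bacteria only wells and 100% = bacteria with antibiotic wells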
Arbovirus anti = blocks arbovirus infection | hit rate 0.37% among 200,000 | arbovirus infection cell-based antiviral screen | inhibition, % at 10 µM;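 active means inhibition from about 30%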;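 further: bluetongue infection of BSR cells; cell survival read as ATP light after 72 h; 0% = infected wells without compound and 100% = uninfected wells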
Arbovirus anti repeat = further read-out of Arbovirus anti, marked with its call; inhibition, %; measured here: 10K subset replicate screen; many hits read low in the repeat;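 first of two repeat runs on a subset; 0% = infected and 100% = uninfected wells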
Active calls of the source: *; i = inactive; nt = not tested or not shown; & = joins results of further samples. This is a subset, so the mix of outcomes need not match the whole.

A first look (six entries):
SMILES	RecA splice inh	Mtb bLac sens	YopH PTP inh	Mtb H37Rv	Arbovirus anti	others
O=C1C2CCCN2C(=S)N1C1CCCCC1 (centres undefined)	-2.9	3	nt	nt	nt
CCOCc1nnc(NC(=O)c2cc(Cl)ccc2OC)s1	-3.3	37	-20	6%	2
COc1ccc(OCC(=O)NNC(=O)c2ccc3c(=O)n4c(nc3c2)CCC4)cc1	0.6	-3	nt	nt	nt
COc1ccc(Cl)cc1-c1nc(SCC(=O)NC(C)C)n[nH]1	-3.2	0	nt	-11%	11
N#Cc1nc(-c2cccs2)oc1N1CCOCC1	-2.4	0	-4	-5%	-4
CCOC(=O)CNC(=O)N1CCC(CCOc2ccccc2)(C(=O)OCC)CC1	1.0	3	nt	nt	nt

The listing (from the top)
SMILES	RecA splice inh	Mtb bLac sens	YopH PTP inh	Mtb H37Rv	Arbovirus anti	others
O=C1C2CCCN2C(=S)N1C1CCCCC1 (centres undefined)	-2.9	3	nt	nt	nt
CCOCc1nnc(NC(=O)c2cc(Cl)ccc2OC)s1	-3.3	37	-20	6%	2
COc1ccc(OCC(=O)NNC(=O)c2ccc3c(=O)n4c(nc3c2)CCC4)cc1	0.6	-3	nt	nt	nt
COc1ccc(Cl)cc1-c1nc(SCC(=O)NC(C)C)n[nH]1	-3.2	0	nt	-11%	11
N#Cc1nc(-c2cccs2)oc1N1CCOCC1	-2.4	0	-4	-5%	-4
CCOC(=O)CNC(=O)N1CCC(CCOc2ccccc2)(C(=O)OCC)CC1	1.0	3	nt	nt	nt
COC(=O)C1C(=O)NCC1c1ccc(OC)cc1 (centres undefined)	-1.1	-7	-20	-4%	0
CC(=C/c1ccccc1)/C=N/n1c(C)n[nH]c1=S	-3.8	-2	nt	nt	nt
CCOc1ccc(-n2c(SCc3cc(=O)oc4cc(C)c(C(C)C)cc34)nnc2-c2cccnc2)cc1	9.3	5	-1	10%	-9
CS(=O)(=O)c1ccc(NC(=O)CN2C(=O)C3CCCCC3C2=O)cc1 (centres undefined)	0.1	12	nt	nt	nt
Cc1sc2nc(SCC(=O)NCCCO)n(-c3ccccc3)c(=O)c2c1C	0.9	0	nt	nt	nt
CCCCN(CC)C(=O)Cc1ccccc1OC	2.3	2	18	12%	2
C[C@@H]1C(=O)O[C@H]2[C@H]1CC[C@@]1(C)C(=O)C=C[C@@](C)(O)[C@H]21	-6.2	-5	nt	-5%	nt
CCc1ccc(OC)c(-c2csc(N)n2)c1	-1.2	-3	nt	0%	9
COc1ccc(S(=O)(=O)N2CCC(C(=O)NC3(C)CCS(=O)(=O)C3)CC2)cc1OC (centres undefined)	-1.5	-1	nt	nt	nt
Cc1ccc(-c2[nH]ncc2/C=N/n2c(COc3ccccc3)nc3ccccc3c2=O)cc1	-0.5	39	-21	15%	-30
CC(=O)OCCN1C(=O)c2cccc3cc([N+](=O)[O-])cc(c23)C1=O	-254	95	nt	nt	nt
CC(C)OC(=O)C1C(=O)NC2(C)CC1c1ccccc1O2 (centres undefined)	5.4	-2	-6	-14%	11
COc1ccccc1N1C(=O)c2cccc3c(C(=O)O)ccc(c23)C1=O	-1.9	9	-20	-4%	6
Cn1c(=O)c2c(nc(NC3CCCCC3)n2CC(O)COc2ccccc2)n(C)c1=O (centres undefined)	0.6	-5	-33	13%	5
COc1ccc2c(c1)CCc1cn3ncc(C#N)c3nc1-2	-3.5	3	nt	-4%	-2
CCOc1cc(C(=O)Nc2cc(C)ccc2OC)ccc1OCC(=O)N1CCCCC1	1.9	1	-6	3%	1
O=S(=O)(c1cccs1)N1CCN(Cc2cccc(F)c2)CC1	1.0	-4	nt	nt	nt
OCCNCc1ccc(OC2CCCC2)cc1	0.8	-10	10	-8%	-4
Nc1nc(SCC(=O)Nc2ccc([N+](=O)[O-])cc2Br)n[nH]1	-4.1	-13	4	4%	-3
CN(C)C(CNC(=O)c1ccc(NC(=O)c2cccs2)cc1)c1ccccc1 (centres undefined)	3.2	5	nt	nt	nt
Cc1ccc(NC2=C(NCCO)C(=O)c3ccccc3C2=O)cc1	71*	18	89*	-3%	-18
C=CCn1c(SCCOc2ccc(OC)cc2)nnc1C(C)NC(=O)c1ccc(OC)cc1 (centres undefined)	2.2	-6	9	-1%	-6
O=C(c1cnn(C(=O)c2ccc(O)cc2)c1)c1ccccc1O	1.6	-3	nt	2%	-1
Cc1cccc(N(CC(=O)NCc2ccco2)C(=O)CNS(=O)(=O)c2ccc(F)cc2)c1	-0.3	8	nt	nt	nt
Cc1cccc(NC(=O)C2CC(=O)n3cnnc3S2)c1 (centres undefined)	4.7	-5	4	-16%	8
Cc1ccccc1NC(=O)CCc1c(C)nn(-c2ccc(N3CCOCC3)nn2)c1C	1.5	2	nt	nt	nt
COc1ccc(C(C(=O)NC2CCCC2)N(C(=O)c2snc(C(N)=O)c2N)c2cccc(O)c2)cc1 (centres undefined)	2.1	-2	nt	nt	nt
O=C(C1CCCN(S(=O)(=O)c2ccc(F)cc2)C1)N(Cc1cccs1)C1CC1 (centres undefined)	5.4	-9	0	1%	0	Arbovirus anti repeat=4
COc1ccc(/C=N/NC(=S)Nc2cc(S(=O)(=O)N3CCOCC3)ccc2N2CCOCC2)cc1O	0.6	4	-30	5%	-18
O=C(O)c1cc(S(=O)(=O)N2CCCCC2)ccc1F	-1.5	0	-11	-3%	3
Cn1c(-c2ccc(F)cc2)cnc1SCC(=O)NNC(=O)Cc1ccccc1	-2.8	6	nt	8%	0
FC(F)(F)c1nc(SCc2ccc(Cl)cc2Cl)n[nH]1	-0.5	-3	nt	-14%	nt
Cc1cc(C)c2c(N)c(C(=O)Nc3ccc([N+](=O)[O-])cc3)sc2n1	1.6	-2	nt	nt	nt
O=C(NC(=S)Nc1ccccc1N1CCN(C(=O)c2ccccc2)CC1)c1cccs1	-0.2	3	nt	1%	nt
O=C(O)c1ccc2c(c1)C(=O)N(CCc1c[nH]c3ccccc13)C2=O	-1.3	1	nt	nt	nt
CC(NC(=O)CSC1=NCCS1)c1ccccc1 (centres undefined)	5.6	0	-32	0%	-7
Cc1ccc(S(=O)(=O)c2nc(NCCN(C)C)sc2Cl)cc1	0.6	-1	10	-7%	-1
CCCCn1c(SCC(=O)N2CCN(c3ccccc3)CC2)nc2ccsc2c1=O	14	23	2	2%	34*
CCCNS(=O)(=O)c1cc(CN2C(=O)c3cccnc3C2=O)ccc1OC	1.6	-1	nt	nt	nt
CCOc1ccc(NC(=O)c2ccccc2-c2ccccc2C(=O)O)cc1	-1.9	66	nt	nt	nt
O=C(CN1CCOc2ccccc21)NC1CC1	8.0	2	-39	-3%	-7	Arbovirus anti repeat=-3
CC(=O)c1cccc(NC(=O)NCc2cccs2)c1	1.3	3	-20	1%	-4
Cc1ccc(C)c(CSC2=NCCN2C(=O)Cc2ccc([N+](=O)[O-])cc2)c1	0.4	6	-22	-1%	7
CC1=C(C(N)=O)C(c2ccc(F)cc2)n2nc(CCCO)nc2N1 (centres undefined)	1.6	-13	nt	nt	nt

(list continues)
SMILES	RecA splice inh	Mtb bLac sens	YopH PTP inh	Mtb H37Rv	Arbovirus anti	others
COc1ccc(-c2cc(C(=O)N(C)Cc3ccc(F)cc3)c3ccccc3n2)cc1OC	8.7	-3	nt	nt	nt
OCCOCCn1c(CCNc2nc(-c3ccc(F)cc3)cs2)nc2cc(C(F)(F)F)ccc21	0.2	85	nt	-7%	nt
CCOCCCn1c(=N)c(S(=O)(=O)c2ccccc2)cc2c(=O)n3cc(C)ccc3nc21	i	-6	nt	nt	nt
COc1ccc(CCNC(=O)N2CCOCC2)cc1	-1.1	-10	-24	6%	0
CCOC(=O)C1=C(CC)Nc2ccccc2N=C1NC(=O)c1cccc(S(=O)(=O)N2CCCC2)c1	2.5	-11	-23	1%	-1
CCOC(=O)c1ccc(Nc2nc(N)c3cc(OC)c(OC)cc3n2)cc1	-0.9	62	nt	nt	nt
CCCc1nc(SCC(=O)Nc2ccc(S(=O)(=O)N(C)C)cc2)c2ccccc2n1	1.9	2	-25	3%	2
C=CCn1c2ccccc2c2nnc(SCN3C(=O)c4ccccc4C3=O)nc21	4.1	-6	-14	-2%	-2	Arbovirus anti repeat=-3
CNS(=O)(=O)c1cccc(C(=O)OCC(=O)N(Cc2ccccc2)C(C)(C)C)c1	2.6	-3	nt	5%	7
O=c1c2c3c(sc2nc2sc(CN4CCCCC4)cn12)CCCC3	0.9	-1	-1	nt	-5
COc1ccc(CN2CCc3ccc(NC(=O)CCc4ccccc4OC)cc3C2)c(O)c1	-3.6	57	nt	nt	nt
CN(C)CCCN1C(=O)C(=O)/C(=C(/O)c2ccncc2)C1c1cccnc1 (centres undefined)	-1.0	nt	-46	10%	5
C[C@@H]1C[C@H]2[C@@H]3CCC4=CC(=O)C=C[C@]4(C)[C@@]3(F)[C@@H](O)C[C@]2(C)[C@@]1(O)C(=O)CO	2.3	4&0	nt	nt	nt
COc1ccccc1-n1c(SCC(N)=O)nnc1-c1ccc(S(=O)(=O)N2CCCCC2)cc1	0.7	8	-55	-4%	-1
CCn1cc(C(=O)NCCCN2CC(C)CC(C)C2)c(=O)c2cc(S(=O)(=O)N(C)C)ccc21 (centres undefined)	-1.0	5	2	2%	4	Arbovirus anti repeat=-1
CC(=O)N1N=C(c2cccc(O)c2)CC1c1cccs1 (centres undefined)	-0.7	5	nt	nt	nt
CCOC(=O)Cc1cc(=O)[nH]c(/N=C(/NC(=O)c2ccccc2)Nc2ccccc2C(F)(F)F)n1	-1.4	0	12	-2%	5
COc1ccc(-n2nc(C(=O)NCC(=O)Nc3ccccn3)c3ccccc3c2=O)cc1Cl	-8.8	nt	-29	nt	-7
O=C(NCC1CCCO1)c1ccccc1NS(=O)(=O)c1cccs1 (centres undefined)	-3.0	-6	nt	nt	nt
O=C(CCCc1cccs1)NCCc1c[nH]c2ccccc12	0.3	-4	nt	nt	nt
O=[N+]([O-])c1ccc(N/N=C/c2cccc(O)c2O)c(S(=O)(=O)N2CCOCC2)c1	-5.2	2	nt	8%	-8
CCCCCSc1nnc(-c2ccccc2N)c(=O)[nH]1	1.0	6	-29	-8%	2
CCOc1ccc(NC(=O)CCN2CCN(c3ccccc3OC)CC2)cc1	0.2	-11	-47	8%	2
O=c1c2c(nc3n1CCCCC3)sc1c(O)cccc12	nt	-14	-22	-4%	11
C=CCn1cccc(C(=O)Nc2ccc(SC)cc2)c1=O	1.0	0	nt	nt	nt
N#Cc1cc(Oc2ccc3ccccc3c2)c(-n2nnc3ccccc32)cc1C#N	-0.1	4	-7	4%	-11
O=c1c(-c2ccc(Br)cc2)[n+]([O-])c2ccccc2n1OCc1ccccn1	0.0	-4	nt	2%	-7
CCN(CC)CCCN1C=C2C(=O)C(C)(OC(=O)CCC(=O)OC)C(=O)C(Br)=C2C=C1c1ccc(OC)cc1 (centres undefined)	-21	0	nt	-9%	nt
C/C(CC(C)C)=N\Oc1nc(C)cc(C)n1	nt	-8	nt	3%	nt
COc1cc(NC(=S)NCCc2ccccc2)c(OC)cc1NC(=O)CC(C)C	1.2	-2	nt	-3%	-2

Among those listed so far, these have a cyano group:
SMILES	RecA splice inh	Mtb bLac sens	YopH PTP inh	Mtb H37Rv	Arbovirus anti	others
N#Cc1nc(-c2cccs2)oc1N1CCOCC1	-2.4	0	-4	-5%	-4
COc1ccc2c(c1)CCc1cn3ncc(C#N)c3nc1-2	-3.5	3	nt	-4%	-2
N#Cc1cc(Oc2ccc3ccccc3c2)c(-n2nnc3ccccc32)cc1C#N	-0.1	4	-7	4%	-11

Next part:
SMILES	RecA splice inh	Mtb bLac sens	YopH PTP inh	Mtb H37Rv	Arbovirus anti	others
O=C(c1cc(-c2ccco2)on1)N1CCc2ccccc2C1	nt	-4	-32	-4%	3
Cc1nnc(SCC(=O)N2CCCC2)n(N)c1=O	-4.7	-5	nt	0%	15
CNc1nc(N(C)C)nc(N(C)C)n1	2.7	-2	4	-8%	-8
O=C(O)c1ncn(Cc2ccccc2)c1C(=O)O	-0.3	-15	-51	4%	10
CCc1ccc(CN2CCN(S(=O)(=O)Cc3ccccc3)CC2)cc1	-1.7	0	-25	2%	-2
NC(=O)c1cc2cc(Cl)ccc2oc1=O	nt	3	-9	-9%	19
CCOC(=O)c1sc(-c2cccs2)nc1C	0.2	-13	nt	-10%	-8
